HPGD block – HPGD (human) dehydrogenase inhibition | purified HPGD, NADH fluorescence kinetic, PGE2 substrate | 4.3% of 150,000 active | Potency, µM, without a hit: at the highest dose activity change, negative = inhibition, actives largely listed as inhibitors | P15428; active = well fitted inhibition curve with a large enough effect (not every such curve was filed as active); inconclusive = small, poorly fitted or top-dose-only effect, or another doubt; inactive = no such curve, though single readings can be large or run the other way;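 note: top concentration of the series not given in the record; plate controls included wells without enzyme; inactives centre near -10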
Target sequence (P15428 whole entry, looked up): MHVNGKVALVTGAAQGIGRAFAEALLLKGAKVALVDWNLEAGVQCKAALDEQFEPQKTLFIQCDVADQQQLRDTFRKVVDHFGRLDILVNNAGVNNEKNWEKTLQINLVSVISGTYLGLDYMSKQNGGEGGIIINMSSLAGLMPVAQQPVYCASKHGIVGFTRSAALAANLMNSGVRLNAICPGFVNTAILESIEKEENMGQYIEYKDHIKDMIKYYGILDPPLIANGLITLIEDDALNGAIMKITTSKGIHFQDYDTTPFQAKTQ
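NADH formation kinetics: reaction with 30 uM PGE2 and 1 mM NAD+ (final), 20 nM enzyme, Tris-HCl pH 8 with Tween 20, after 15 min compound preincubation at room temperature. Fluorescence change, last versus first of five reads.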
* marks the source's active call; other numbers are inactive results; ? = inconclusive; & = joins results of further samples. % is set by controls: 0 for no effect and ±100 for the full control effect; potency is the fitted concentration of half-maximal effect. An excerpt; rates above refer to the full screens.

SMILES | HPGD block
O=Nc1c(O)[nH]c2ccccc12.[Cu].[O-]/N=C1/C(=[OH+])Nc2ccccc21 | 0%
COc1ccc(C2C(C#N)=C(C)NC3=C2C(=O)CC(C)(C)C3)c(OC)c1 (stereo not given) | ?
O=C(C1=NN(c2ccccc2)C2C(=O)N(c3ccccc3)C(=O)C12)c1ccccc1 (stereo not given) | ?
C=CCNCCCCOc1ccc(Br)cc1C | 8%
Cc1cc(N/N=C/c2ccccc2Cl)nc(NCc2ccccc2)n1 | -5%
COc1cccc(C(=O)NCc2nnc(SCC(=O)Nc3nccs3)n2-c2ccccc2)c1 | -13%
C#CCN1CC(C)/C(=N/O)CC1C (stereo not given) | -10%
COCC(=O)N1CCC2(CC1)CCN(c1ncccn1)CC2 | -11%
Cc1ccc(C(=O)NC(C)c2ccccc2)o1 (stereo not given) | 22µM*
O=C(COc1cccc(NC(=O)c2cccc([N+](=O)[O-])c2)c1)c1ccc(Br)cc1 | ?
CCn1c(Cc2ccccc2)nnc1SCC(=O)Nc1ccc(OC)cc1 | -1%
COc1cc(OC)cc(C(=O)N(Cc2nc(-c3cccc(C)c3)no2)C(C)C)c1 | -10%
COc1ccccc1C(=O)N1CCCC(c2nc(-c3cc(OC)c(OC)c(OC)c3)no2)C1 (stereo not given) | -8%
O=C1c2ccccc2C(=O)N1CC#CCN1CCN(C2CCCCC2)CC1 | -5%
CCCCn1nnnc1NCc1cccnc1 | -14%
COc1ccc(N2C=C3C(=O)C(C)(OC(=O)CCc4ccccc4)C(=O)C=C3C=C2c2ccc(C#N)cc2)cc1 (stereo not given) | -6%
Cc1nc(C)c(C(=O)C2=C(O)C(=O)N(CCN3CCOCC3)C2c2cccnc2)s1 (stereo not given) | -16%
Cc1cc(C)n(-c2cc(=O)n(C)c(=O)n2C)n1 | -3%
Cc1cccc2cc(C3CC(c4ccco4)=NN3C(=O)CCC(=O)O)c(Cl)nc12 (stereo not given) | -8%
O=[N+]([O-])c1ccc(N2CCNCC2)c(S(=O)(=O)N2CCOCC2)c1 | -2%
COc1cc(CN(C)CCc2ccccn2)cc(OC)c1OC | 4%
Brc1ccccc1-c1nnc(COc2cccc3cccnc23)o1 | ?
COc1cc(CNn2c(C)n[nH]c2=S)cc(Br)c1OCc1ccc(F)cc1 | 16µM*
COc1ccc(OC)c(-c2oc3ccccc3c(=O)c2O)c1 | -23%
O=C(N1CCCCC1)N1CCN(c2ccc(Cl)cc2)CC1 | ?
COc1ccc2c(c1)Cc1sc(NC(C)=O)nc1-2 | -1%
COc1ccc(C(=O)NCC(=O)OCc2ccc(F)cc2Cl)cc1OC | -4%
CC(=O)O[C@H](CC(=O)O)C[N+](C)(C)C | -8%
CCC(C)(C)n1nnnc1C(c1ccc2ncccc2c1)N1CCN2CCCC2C1 (stereo not given) | -11%
O=C1/C(=C/c2ccc(N3CCCC3)cc2)NC(=S)N1C1CC1 | -7%
CC(C)C(C)NC(=O)COc1ccc([N+](=O)[O-])cc1Cl (stereo not given) | -20%
S=C(NCCc1ccccn1)NC1CCCCC1 | 1%
COc1cc2c(cc1NC(=O)CSc1ccccn1)oc1ccccc12 | -3%
CCCOc1ccc(C(=O)CCC(=O)OCC(=O)Nc2cc(C)on2)cc1 | -5%
CCOc1cccc(CN2CCN(c3cccc(C(F)(F)F)c3)CC2)c1O | -14%
COc1ccc(CNc2oc(Cc3cccc4ccccc34)nc2C#N)cc1 | -17%
CCOc1cc(N2CCOCC2)c(OCC)cc1NC(=O)CN1CCCC(C)C1 (stereo not given) | -9%
COc1ccc(CCNC(=O)CN2CCN(S(=O)(=O)c3ccc(Cl)cc3)CC2)cc1OC | -8%
COCc1cc(=O)[nH]c(Nc2nc(C)c3cc(OC)ccc3n2)n1 | -14%
CN(C)S(=O)(=O)c1ccc(N2CCCC2)c(C(=O)Nc2nc3c(ccc4ccccc43)s2)c1 | ?
CC(CCc1ccccc1)NC(=O)c1nnc(Cc2ccc(F)cc2)o1 (stereo not given) | -5%
CC(CCc1ccccc1)NC(=O)Cc1ccc([N+](=O)[O-])cc1 (stereo not given) | -9%
COc1ccccc1C1C([N+](=O)[O-])=CC([N+](=O)[O-])=CN1C (stereo not given) | -10%
CCOC(=O)c1cnn(-c2ccc(C(F)(F)F)cn2)c1N | -11%
CC(C)COc1ccc(/C(O)=C2/C(=O)C(=O)N(CCN(C)C)C2c2ccncc2)cc1 (stereo not given) | -16%

Rewritten as labelled records: part of the list above.
> CCOc1cc(N2CCOCC2)c(OCC)cc1NC(=O)CN1CCCC(C)C1 (stereo not given)
  HPGD block = -9%

> COc1ccc(CCNC(=O)CN2CCN(S(=O)(=O)c3ccc(Cl)cc3)CC2)cc1OC
  HPGD block = -8%

An excerpt taken from the entries so far, for reference:
SMILES | HPGD block
O=C(N1CCCCC1)N1CCN(c2ccc(Cl)cc2)CC1 | ?
COc1ccc2c(c1)Cc1sc(NC(C)=O)nc1-2 | -1%
COc1ccc(C(=O)NCC(=O)OCc2ccc(F)cc2Cl)cc1OC | -4%
CC(=O)O[C@H](CC(=O)O)C[N+](C)(C)C | -8%
CCC(C)(C)n1nnnc1C(c1ccc2ncccc2c1)N1CCN2CCCC2C1 (stereo not given) | -11%
O=C1/C(=C/c2ccc(N3CCCC3)cc2)NC(=S)N1C1CC1 | -7%
CC(C)C(C)NC(=O)COc1ccc([N+](=O)[O-])cc1Cl (stereo not given) | -20%
S=C(NCCc1ccccn1)NC1CCCCC1 | 1%
COc1cc2c(cc1NC(=O)CSc1ccccn1)oc1ccccc12 | -3%
CCCOc1ccc(C(=O)CCC(=O)OCC(=O)Nc2cc(C)on2)cc1 | -5%
CCOc1cccc(CN2CCN(c3cccc(C(F)(F)F)c3)CC2)c1O | -14%
COc1ccc(CNc2oc(Cc3cccc4ccccc34)nc2C#N)cc1 | -17%
CCOc1cc(N2CCOCC2)c(OCC)cc1NC(=O)CN1CCCC(C)C1 (stereo not given) | -9%
COc1ccc(CCNC(=O)CN2CCN(S(=O)(=O)c3ccc(Cl)cc3)CC2)cc1OC | -8%
COCc1cc(=O)[nH]c(Nc2nc(C)c3cc(OC)ccc3n2)n1 | -14%
CN(C)S(=O)(=O)c1ccc(N2CCCC2)c(C(=O)Nc2nc3c(ccc4ccccc43)s2)c1 | ?
CC(CCc1ccccc1)NC(=O)c1nnc(Cc2ccc(F)cc2)o1 (stereo not given) | -5%
CC(CCc1ccccc1)NC(=O)Cc1ccc([N+](=O)[O-])cc1 (stereo not given) | -9%
COc1ccccc1C1C([N+](=O)[O-])=CC([N+](=O)[O-])=CN1C (stereo not given) | -10%
CCOC(=O)c1cnn(-c2ccc(C(F)(F)F)cn2)c1N | -11%

Further records
SMILES | HPGD block
CC(C)(C)NC(=O)CSc1nsc(SCC(=O)NC(C)(C)C)c1C#N | -13%
O=C1C2CSCN2C(=O)CN1CCCN1CCN(C(c2ccccc2)c2ccccc2)CC1 (stereo not given) | -5%
Cc1ccc(C(=O)/C=C/c2ccccc2)o1 | -17%
Cn1nnnc1SCc1nnc(-c2ccc(F)cc2)o1 | -12%
C=CCSc1nsc(N)n1 | -11%
O=C(NCC1CCCO1)c1onc(CSc2ccc(Cl)cc2)c1C(=O)O (stereo not given) | -8%
CC1(C)Cc2c(c(N3CCOCC3)nc3sc(C(=O)N4CCCCC4)c(N)c23)CO1 | ?
CNc1nc(-c2ccc(Cl)cc2)cs1 | -16%
CC(C(=O)N1CCOCC1)c1ccc([N+](=O)[O-])cc1 (stereo not given) | -6%
COc1ccc(-c2cc(C(F)(F)F)nc(SCC(=O)NCc3ccco3)n2)cc1OC | ?
Cc1ccccc1CS(=O)(=O)Cc1ccc(C(=O)NCc2cccnc2)o1 | -8%
COC(=O)c1[nH]c2c(c1C)C(=O)CC(c1cc(OC)ccc1OC)C2 (stereo not given) | 5%
Cc1ccc(C(=O)NCc2ccc3c(c2)OCO3)cc1S(=O)(=O)N1CCOCC1 | -11%
CC1CCN(S(=O)(=O)c2ccc(C(=O)Nc3sccc3C(N)=O)cc2)CC1 | ?
CC(C)C(=O)NC(=S)Nc1ccc(S(=O)(=O)N2CCCC2)cc1 | -3%
CC(=O)OC(C(=O)n1nc(C)cc1C)c1ccccc1 (stereo not given) | -9%
CC(=O)CCc1ccc(OC(=O)c2cccnc2)cc1 | -8%
COc1ccc2c(c1)c1ncn(CCN3CCNCC3)c(=O)c1n2C | ?
CC(OC(=O)C1CCCCC1)c1nc2ccccc2[nH]1 (stereo not given) | -13%
O=C(NCC(=O)N(Cc1ccccc1)C(C(=O)NC1CCCC1)c1ccncc1)c1ccco1 (stereo not given) | -13%
c1ccc(-c2cnnc(N3CCCCC3)n2)cc1 | -10%
CC#CCN1c2ccccc2[C@]23C[C@@H](C(=O)OC)N(S(=O)(=O)c4ccc(Br)cc4)C2=NC(C(=O)OC)=C(C(=O)OC)[C@H]13 | -2%
CCN1CCN(C(=S)Nc2ccc3nc(N4CCN(CC)CC4)cc(C)c3c2)CC1 | -28%
CCc1ccccc1NC(=S)N(CCCN1CCOCC1)Cc1ccccn1 | -6%
Cc1nc2ncnn2c(C)c1Cc1ccc(Cl)cc1 | -20%
Cc1ccc(S(=O)(=O)/N=C(\Nc2cccc(C)c2)Nc2nc(C)cc(C)n2)cc1 | -14%
Cc1c(C(=O)OC2CCCCC2)[nH]c2c1C(=O)CC(C)(C)C2 | -10%
CSc1nc2ccc(S(=O)(=O)NC3CCCCC3)cc2s1 | 16µM*
CCC(=O)N1CCCn2c1nc1ccccc12 | -13%
CCOC(=O)c1cc2sc(C)cc2n1CC(=O)N1CCc2ccccc21 | -16%
COc1ccc2c(c1)CC(C1(O)C(=O)Nc3ccccc31)C2=O (stereo not given) | -1%
COc1ccc(Cl)c(Cn2c(NCc3ccco3)nc3c2c(=O)n(C)c(=O)n3C)c1 | -12%
Cc1cc(C(=O)N2CCN(C(=O)C3CCCO3)CC2)no1 (stereo not given) | -5%
Cc1cccc(-c2nc(CSc3nc4c(c(=O)[nH]3)CCC4)c(C)o2)c1 | 2.8µM*
COC(=O)[C@@H](NC(=O)O[C@@H]1C(=O)c2cc(Br)ccc2O[C@H]1c1cccc(OC)c1)C(C)C | -1%&-15%
CC(=O)Oc1c(-c2ccccc2)oc2c(CC=C(C)C)c3c(c(OC(C)=O)c2c1=O)C=CC(C)(C)O3 | -9%
COc1ccc(NC(=O)N2CC3(CCN(C(=O)c4cccn4C)CC3)C2)cc1 | -2%

Bioassay records deposited in PubChem BioAssay by National Center for Advancing Translational Sciences (NCATS).
